Sa helicase inh = S. aureus DNA helicase inhibition | 120,000 tested, 0.05% active | purified S. aureus helicase, fluorescence unwinding assay; about half of the hits fall short of the stated cut | inhibition, %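 (tested at about 80 µM)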;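 active = both duplicates at 50% or more, or one of them with a favoured structure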;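 note: 0% = mean of negative control wells and 100% = mean of positive control wells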
MgrA DNA FP = alters Staphylococcus aureus MgrA binding to DNA; fluorescence polarization; inhibition, %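 (about 10 µg/mL by stock and volumes)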; 84,000 tested, 0.13% active; AID 602314;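 active = above 50% in either of two replicates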;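 note: 0% = protein plus DNA without compound and 100% = DNA alone without protein; higher means less MgrA bound to DNA so lower polarization; one replicate is shown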
Active calls of the source: *; nt = no result given. An excerpt. The share of hits here may be higher or lower than overall.

1. COc1ccc(Br)cc1C1CC(=O)C(C)C(c2cc(Br)ccc2OC)N1 (stereo not given)
2. S=C(Nc1ccc(N2CCOCC2)nc1)Nc1cc(Cl)ccc1Cl
3. CCC1CCCCN1C(=O)c1ccc(F)cc1 (stereo not given)
4. CCc1ccc(OC)c(S(=O)(=O)NC2CCCCC2)c1
5. NC(=O)CSCc1ccc(Br)cc1
6. CCn1c(C(=O)Nc2cc(C)ccc2C)cc2sc(Cl)cc21
7. Cc1ccc(CC(C#N)Sc2nnc(-c3cccnc3)n2Cc2ccccc2)cc1 (stereo not given)
8. NC(=O)C1CCN(Cc2ccccc2)CC1
screen / no.	1	2	3	4	5	6	7	8
Sa helicase inh	9	nt	13	6	24	10	2	8
MgrA DNA FP	-0.4	6.9	-0.1	1.2	-0.8	nt	nt	-0.6

Next part; the last four above are carried over.
5. NC(=O)CSCc1ccc(Br)cc1
6. CCn1c(C(=O)Nc2cc(C)ccc2C)cc2sc(Cl)cc21
7. Cc1ccc(CC(C#N)Sc2nnc(-c3cccnc3)n2Cc2ccccc2)cc1 (stereo not given)
8. NC(=O)C1CCN(Cc2ccccc2)CC1
9. Cc1nn(C(C)(C)C)c(NC(=O)c2ccccc2)c1C#N
10. CCC(Sc1nncn1C)C(=O)Nc1ccc(OC(F)(F)F)cc1 (stereo not given)
11. COC(=O)c1c(O)c2c([nH]c1=O)CCCC2
12. Nc1[nH]nc2nc(-c3ccccc3)c3c(c12)CCC3
13. COc1ccccc1Nc1c2c(nc3ccc(NC(=O)COc4cccc(C)c4)cc13)CCCC2
14. Cc1ccc2ncc3c(-c4ccccc4)n[nH]c3c2c1
15. Cc1cccc(NC(=O)c2cccc3ccccc23)c1
16. c1ccc(Nc2ncnc3c2oc2ccccc23)cc1
screen / no.	5	6	7	8	9	10	11	12	13	14	15	16
Sa helicase inh	24	10	2	8	nt	-14	-4	-26	-5	-6	nt	4
MgrA DNA FP	-0.8	nt	nt	-0.6	-1.8	2.4	0.6	nt	-1.2	nt	-2.7	-1.4

17. CN1C(=O)C(C(=O)NC(C)(C)C)C2CC1(C)Oc1ccccc12 (stereo not given)
18. CCOC(=O)C1CCCN(CC(=O)/C=C2/N(C)c3ccccc3C2(C)C)C1 (stereo not given)
19. CC(=O)Nc1cc(NC(C)=O)[nH]n1
20. CC(C)OC(=O)C1Cc2ccccc2CN1S(=O)(=O)c1cccs1 (stereo not given)
21. Cn1nc(C(F)(F)F)c2cc(-c3nc(-c4ccc(C(F)(F)F)cc4)no3)sc21
22. O=C(CC1SCC(C(=O)O)NC1=O)NCc1ccccc1 (stereo not given)
23. COc1cc(CN2CCCC(O)C2)cc(OC)c1OC (stereo not given)
24. CN1/C(=C(/C#N)C(=O)CSc2nc(C3CC3)n(-c3ccccc3)n2)Sc2ccccc21
screen / no.	17	18	19	20	21	22	23	24
Sa helicase inh	7	26	22	32	18	18	0	-9
MgrA DNA FP	1.4	nt	nt	nt	nt	-3.1	-3.0	nt

25. CN(C)NC(=S)Nc1ccc(S(=O)(=O)N2CCCCC2)cc1
26. CC1CC(C)CN(C(=O)Cn2c(=O)n(CCCC(=O)NCc3ccco3)c(=O)c3sccc32)C1 (stereo not given)
27. Nc1ccccc1SCC(=O)Nc1c(F)cccc1F
28. Cc1cc(N2CCOCC2)c2c(N)c(C)cc(C)c2n1
29. COCc1[nH]nc2c1C1(CCC(C(C)(C)C)CC1)C(C#N)=C(N)O2 (stereo not given)
30. O=C(CC(=O)c1ccccc1O)c1ccccc1
31. COc1ccccc1OCC(=O)NCCC1=CCCCC1
32. O=S(=O)(Nc1ccccc1N1CCOCC1)c1ccc2c(c1)OCC2
screen / no.	25	26	27	28	29	30	31	32
Sa helicase inh	-14	8	nt	22	7	18	-20	nt
MgrA DNA FP	nt	-0.3	-1.1	0.3	-30	3.0	0.1	-1.3

33. COc1ccc(/C=C/C(=O)/C=C/c2ccc(OC)cc2)cc1
34. Cc1onc(-c2ccccc2)c1C(=O)OCC(=O)c1ccc2c(c1)OCCO2
35. N#C/C(=C/c1cn(CC(=O)O)c2ccccc12)c1ccc(F)cc1
36. COC(=O)NC(=Nc1ccc(OC)cc1)C(F)(F)F
37. CCCCc1nc2c(c(=O)[nH]1)C(C)(C)Cc1ccccc1-2
38. COc1cc2c(cc1OC)-c1nnc(C)n1C(C)(C)C2
39. CN1CCN(C(=S)c2cn(Cc3ccc(F)cc3)c3ccccc23)CC1
40. COc1cccc(CCC(=O)O)c1OC
screen / no.	33	34	35	36	37	38	39	40
Sa helicase inh	-5	10	-9	-15	10	6	16	-4
MgrA DNA FP	-3.2	nt	1.9	-0.4	-12	nt	1.4	nt

Profiles from above.
COc1ccc(/C=C/C(=O)/C=C/c2ccc(OC)cc2)cc1 is listed as Sa helicase inh = -5; MgrA DNA FP = -3.2
Cc1onc(-c2ccccc2)c1C(=O)OCC(=O)c1ccc2c(c1)OCCO2 is listed as Sa helicase inh = 10; MgrA DNA FP = nt
COC(=O)NC(=Nc1ccc(OC)cc1)C(F)(F)F is listed as Sa helicase inh = -15; MgrA DNA FP = -0.4

Additional results follow:
41. O=S1(=O)CC(c2ccccc2)CS(=O)(=O)C1
42. BrCCOC1OCCOC1OCCBr (stereo not given)
43. Cc1ccc(N=Cc2c(O)[nH]c(=S)[nH]c2=O)cc1
44. O=C(CSc1nc2c(c(=O)n1-c1ccc(Cl)cc1)SCC2)Nc1nccs1
45. CC(=O)Nc1ccc2nc(C)sc2c1
46. O=C(NCc1n[nH]c(=S)n1-c1ccccc1)c1ccccc1
47. CCOC(=O)c1cnc2ccc(C(F)(F)F)cn2c1=O
48. CCOC(=O)c1sc(-c2ccc(C)cc2)cc1N
screen / no.	41	42	43	44	45	46	47	48
Sa helicase inh	nt	12	-4	8	10	4	nt	3
MgrA DNA FP	-3.5	-0.9	15	2.0	1.4	1.0	1.3	nt

49. NS(=O)(=O)c1ccc(NNC(=O)CC2(CC(=O)O)CCCC2)cc1
50. CCCNC(=O)c1ccc(CN2CCCn3nc(C)cc32)cc1
51. Cc1ccnc(N(C(=O)Nc2ccc(Cl)cc2)C2=NCC(C)S2)c1 (stereo not given)
52. CCOc1ccccc1C(=O)Nc1nncs1
53. CCOC(=O)C1CCN(c2c(C(=O)c3ccccc3)cnc3ccc(CC)cc23)CC1
54. CCOC(=O)c1c(N)n(-c2ccccc2)c2nc3ccccc3nc12
55. CN1CCN(C(=O)c2cc(C(C)(C)C)cc(C(C)(C)C)c2)CC1
56. Cc1cc(C)n2cc(CN3CCOCC3)nc2n1
screen / no.	49	50	51	52	53	54	55	56
Sa helicase inh	12	-1	4	16	-4	-11	-1	10
MgrA DNA FP	nt	nt	nt	-1.8	4.2	nt	-1.2	nt

57. COc1ccc2c(c1)CN(c1ccc(C)cc1C)CO2
58. CCOC(=O)c1cc(-c2ccccc2)n(CCC(=O)NCc2cccs2)c1C
59. Oc1ccc(Br)cc1CNc1ccc(F)cc1
60. CS(=O)(=O)Nc1cccc(C(=O)NCc2ccccc2)c1
61. CC(=O)Nc1cccc(OCC(=O)N(C)c2ccccc2)c1
62. CSc1scc2c1-c1[nH]c(=S)ncc1CC2
63. O=C1CCC(=O)N1c1ccc(F)cc1F
64. CCNC(=S)N1CCc2cc(OC)c(OC)cc2C1COc1ccc2c(C)cc(=O)oc2c1 (stereo not given)
screen / no.	57	58	59	60	61	62	63	64
Sa helicase inh	23	0	nt	-14	23	nt	nt	-11
MgrA DNA FP	-1.7	nt	3.9	1.4	1.2	3.1	-0.8	1.4

65. Cc1cc(C2N=C(N)Nc3nc4ccccc4n32)c(C)n1C1CC1 (stereo not given)
66. CN(Cc1ccccc1)C(=O)Cn1cnc(S(=O)(=O)N2CCCC2)c1
67. Cc1cccc(-c2ocnc2C(=O)Nc2ccc(N3CCN(S(C)(=O)=O)CC3)cc2)c1
68. CCCCCC(=O)NC1CCN(C)CC1
69. O=C(c1ccccc1)C1CCN(C(=O)c2cccc(C(F)(F)F)c2)CC1
70. COc1ccc(C(=O)Nc2ccc(-n3nncc3C(C)(C)C)cc2)cc1
71. O=C1CCC(C(=O)N2CCCC2c2nc3ccccc3s2)=NN1c1ccccc1 (stereo not given)
72. Cc1ccc(N2CC(NC(=O)NCc3ccccn3)CC2=O)cc1 (stereo not given)
screen / no.	65	66	67	68	69	70	71	72
Sa helicase inh	6	15	-6	-13	nt	7	-1	-2
MgrA DNA FP	nt	nt	2.1	0.6	-0.9	nt	nt	nt

73. COc1ccc(Cn2cnc3c2c(=O)n(C)c(=O)n3C)cc1
74. S=C(Nc1cccnc1)Nc1cccnc1
75. O=C1CCCC2=C1C(c1ccccn1)C1=C(CCCC1=O)N2
76. Cc1cccc(OCc2nnc(SCC(=O)c3cc(C)n(-c4ccc5c(c4)OCO5)c3C)o2)c1
77. c1ccc(Sc2c(-c3ccccc3)nc3ccccn23)cc1
78. C/C(=N/O)c1nnc2cc(C)nn2c1C
79. CC1(C)CC(=O)c2cc(C(=O)N3CCCC(C)(C)C3)c(=O)n(-c3ccccc3)c2C1
80. COC(=O)C(C#N)c1nc2ccccc2nc1Cl (stereo not given)
screen / no.	73	74	75	76	77	78	79	80
Sa helicase inh	nt	14	-12	9	nt	-8	0	-4
MgrA DNA FP	0.2	1.6	nt	nt	0.4	nt	-5.9	nt

81. Cc1cc(C)c(C)c(S(=O)O)c1C
82. O=C(CSc1cccc[n+]1[O-])c1cc2ccccc2o1
83. COc1ccc(CC(=O)OCC(=O)Nc2ccc(N3CCOCC3)cc2)cc1
84. N#Cc1ccc(OCC(=O)N2CCOCC2)cc1
85. O=C(NC1CCCCC1)n1c(=O)oc2ccc(Cl)cc21
86. CCOc1ccccc1NC(=O)c1ccc(C)cc1
87. Cc1cc(-c2ccccc2)nc(SCc2ccccc2)c1C#N
88. c1ccc(NCCNc2ncnc3sccc23)nc1
screen / no.	81	82	83	84	85	86	87	88
Sa helicase inh	27	9	3	-10	-4	1	-5	-6
MgrA DNA FP	nt	0.7	nt	nt	5.5	2.0	-1.8	nt

89. CC1CN(Cn2nc(-c3cccs3)n(-c3ccccc3)c2=S)CC(C)O1 (stereo not given)
90. C=CCN1C(C(=O)c2ccccc2)=C(OC(=O)c2ccccc2)c2ccccc2S1(=O)=O
91. Cc1ccc(S(C)(=O)=NC(=O)NC(=O)c2c(Cl)cccc2Cl)cc1 (stereo not given)
92. O=C(NC1CCCCCC1)C1CCCN(c2nc3ccccc3o2)C1 (stereo not given)
93. O=C(Cn1cnc2c(nnn2Cc2ccc(Cl)cc2)c1=O)NCC1CCCO1 (stereo not given)
94. CCS(=O)c1ccccc1C(=O)OCc1cc(=O)oc2cc(C)c(C)cc12 (stereo not given)
95. CN1CCc2nc3ccccc3c(C(=O)OCC(=O)Nc3ccccc3C#N)c2C1
96. C=C1SC(Nc2c(CC)cccc2CC)=NC1(C)C
screen / no.	89	90	91	92	93	94	95	96
Sa helicase inh	11	5	nt	14	20	9	2	nt
MgrA DNA FP	nt	0.7	-1.2	nt	nt	nt	nt	0.8

97. Cc1cc(N2CCOCC2)nc2ccc(NC(=S)NC3CC3)cc12
98. O=C(Nc1ccccc1)n1nnc(C2CN(Cc3ccccc3)CN(Cc3ccccc3)C2)n1
99. COC(=O)c1scc2c(SCc3ccccc3)cc(C(F)(F)F)nc12
100. Cc1cc2cc(CN(CC3COCCO3)S(=O)(=O)c3ccc(F)cc3)c(=O)[nH]c2cc1C (stereo not given)
101. O=C(NN1CC(=O)N(c2ccccc2-c2ccccc2)C1=O)c1ccncc1
102. FC(F)(F)c1ccc(Nc2n[nH]c(=S)s2)cc1
103. Nc1nc2nc(-c3cccs3)cc(C(F)(F)F)c2s1
104. CCOC(=O)N1CCN(C(=O)c2cc(-c3ccc(F)cc3)n[nH]2)CC1
screen / no.	97	98	99	100	101	102	103	104
Sa helicase inh	2	nt	nt	5	-3	nt	-14	16
MgrA DNA FP	nt	-5.2	1.4	1.9	-0.2	-0.6	nt	nt

105. Cc1ccc2c(COC(=O)c3ccc(Cl)nc3)cc(=O)oc2c1
106. CCC(CC)NC(=O)CSc1nc(C)c(C)n1CC(C)C
107. C(=C\C1Nc2ccccc2-c2nc3ccccc3n21)/c1ccccc1 (stereo not given)
108. Cc1cc(C(=O)Nc2cc(-c3ccccc3)nn2C)no1
109. Cc1ccc(-c2nc(Nc3cccc(C(F)(F)F)c3)sc2CC(=O)O)cc1
110. CCOC(=O)c1cc2c(=O)n3ccccc3nc2n(C)c1=NC(=O)c1ccc(OC)cc1
111. CS(=O)(=O)Nc1ccc2oc3ncccc3c(=O)c2c1
112. CSc1ncc(F)c(N(CCO)CCO)n1
113. COc1ccc(CNC2CC2)cc1
screen / no.	105	106	107	108	109	110	111	112	113
Sa helicase inh	8	-8	4	nt	9	-24	nt	-4	-12
MgrA DNA FP	nt	nt	-1.3	-0.2	-0.9	nt	1.0	1.3	nt
